CtBP-E1A blk: CtBP/E1A binding inhibition. AID 651724. AlphaScreen GST-E1A/His-CtBP binding, 1536-well; active compounds read low; control for the full effect not named in the record. activity change, % (test concentration not listed). 0.49% of 340,000 active; in the data active means activity change below about -65%; inconclusive means about -30% to -65%; inactive means above about -30%; further: on the % scale 0 is the no-effect control and ±100 the full control effect
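In 5 uL wells, 23 nL compound meets equimolar GST-E1A and His-CtBP (5X stock 125 nM each) for 2 h, 37 °C. Beads (5X, 50 ug/mL) then 1 h, 37 °C, dark.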
gsp ag: agonists of gsp mutant (McCune-Albright syndrome); 0.13% of 340,000 active; Potency, µM (doses to about 76.9 µM), for inactives: at the highest dose activation (cAMP increase), hits mostly activators; gsp mutant cells, cAMP HTRF, 30 min; control for the full effect not named in the record; active = well fitted activation curve with a large enough effect; inconclusive = small, poorly fitted or top-dose-only effect, or another doubt; inactive = no such curve, though single readings can be large or run the other way; cell line not stated here;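 further: phosphodiesterase inhibitor Ro 20-1724 added with compounds to block cAMP breakdown; potency means the concentration at half of the fitted maximal effect; nearly all actives have a fitted effect of over 60% in size; about a fifth of the inactives were tested at one dose only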
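Cells in DMEM/10% FBS with G418 were pretreated with compounds in DMSO plus […] (300 uM stock) for 30 min at 37C. cAMP was measured by HTRF (cAMP-d2 plus anti-cAMP antibody-K) after 30 min at room temperature.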
Menin MLL FP FL: menin-MLL binding inhibition, fluorescein peptide | Fluorescence polarization, fluorescein-MLL peptide displacement from menin | FP activity change, % at 61.4 µM | 290,000 tested, under 10 active; inconclusive = falling polarisation curve, or a change in total fluorescence; inactive = total fluorescence flat and polarisation flat or rising; no compound was filed as active; the % refers to the polarisation; negative = inhibition;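 further: % of control where 0% means no effect; inhibitors lower the polarisation; unlabelled MLL peptide was the positive control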
TRPV1 PAM: potentiators of human vanilloid receptor 1 (TRPV1); Q8NER1; TRPV1-expressing cells, Fluo-8 calcium influx, capsaicin EC20 potentiation; host cell line not named in the record; control for the full effect not named in the record; potentiation, % at 8.33 µM; 0.02% of 320,000 active; AID 540277; active means potentiation above 80%; inconclusive means 30% to 80%; inactive means below 30%; further: 0% is about no effect
Target sequence (Q8NER1 whole entry, looked up): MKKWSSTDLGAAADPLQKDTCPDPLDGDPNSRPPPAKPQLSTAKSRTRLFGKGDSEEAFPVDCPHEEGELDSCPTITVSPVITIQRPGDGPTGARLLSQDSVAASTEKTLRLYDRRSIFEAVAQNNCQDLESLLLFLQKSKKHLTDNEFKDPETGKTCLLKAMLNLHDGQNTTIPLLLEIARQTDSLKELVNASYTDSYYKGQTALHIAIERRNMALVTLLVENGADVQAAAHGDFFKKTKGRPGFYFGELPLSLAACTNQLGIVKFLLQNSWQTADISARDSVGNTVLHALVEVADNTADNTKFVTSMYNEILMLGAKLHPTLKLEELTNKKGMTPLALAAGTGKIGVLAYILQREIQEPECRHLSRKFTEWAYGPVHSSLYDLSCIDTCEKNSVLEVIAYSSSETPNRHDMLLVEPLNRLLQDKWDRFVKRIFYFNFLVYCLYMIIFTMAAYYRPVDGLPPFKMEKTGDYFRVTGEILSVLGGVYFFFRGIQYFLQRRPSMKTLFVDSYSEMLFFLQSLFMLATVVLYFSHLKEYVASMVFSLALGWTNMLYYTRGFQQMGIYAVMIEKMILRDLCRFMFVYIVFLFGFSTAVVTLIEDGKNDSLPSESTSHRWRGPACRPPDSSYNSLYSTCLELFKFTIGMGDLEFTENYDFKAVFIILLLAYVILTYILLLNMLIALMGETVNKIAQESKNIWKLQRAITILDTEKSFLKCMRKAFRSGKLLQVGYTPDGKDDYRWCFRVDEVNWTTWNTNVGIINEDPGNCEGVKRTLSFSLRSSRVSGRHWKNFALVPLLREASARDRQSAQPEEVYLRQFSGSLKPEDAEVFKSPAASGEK
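TRPV1-expressing cells were cultured overnight at 35.5C and loaded with Fluo-8 calcium dye for 40 to 90 min at room temperature. After a 10 s baseline, compound was added and calcium influx was read kinetically for 3 min (ex 480/em 520 nm).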
ClpP mod: qHTS Assay for Activators of ClpP; ATP-dependent Clp protease proteolytic subunit (Bacillus subtilis (strain 168)), P80244; purified B. subtilis ClpP, FRET peptide cleavage, 20 min; Potency, µM (series often up to 57.5 µM), without a hit: at the highest dose activity change, negative = active; 1.9% of 340,000 active; AID 651965, 2013; active = well fitted falling curve with a large enough effect; inconclusive = small, poorly fitted or top-dose-only effect; inactive = no such curve, though single readings can be large or run the other way; further: potency means the concentration at half of the fitted maximal effect; the source files actives as falling curves though it sought activators and does not explain the sign; nearly all actives have a fitted effect of over 65% in size; many hits overshoot -100%
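FRET quenching reversal measured ClpP activation: 10 microg/mL B. subtilis ClpP at pH 8 with the FRET-FV decapeptide, read at 430 nm after 320 nm excitation. The 20-min minus 0-min signal was scaled between DMSO/no-enzyme wells and ADEP (5.8 microM final).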
gsp antagonist: gsp mutant antagonism; Potency, µM (titrated, usually from 76.9 µM), for inactives: at the top dose activity change, negative = inhibition, hits mostly inhibitors; AID 624288; gsp-mutant cells, cAMP HTRF, 30 min; control for the full effect not named in the record; 0.4% of 340,000 active; active = falling curve of any shape with a large fitted effect; inconclusive = falling curve, mostly with a smaller effect; inactive = flat or rising curve; cell line not stated here;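 further: intracellular cAMP measured with PDE inhibitor Ro 20-1724 present during compound exposure; potency means the concentration at half of the fitted maximal effect; on the % scale 0 is the no-effect control and ±100 the full control effect; nearly all actives have a fitted effect of over 65% in size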
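Measurement of cellular cAMP by homogeneous time-resolved fluorescence following a 30 min compound exposure at 37C. The PDE inhibitor […] was present throughout; the assay buffer was DPBS with 0.05% BSA and 0.005% Tween 20.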
Sfp PPTase inh: blocks B. subtilis Sfp PPTase activity. Q9F4F7. Biochemical Sfp PPTase activity, qHTS. Potency, µM, inactives show max response, negative = inhibition, most hits filed as inhibitors. 3.5% of 310,000 active. AID 1490; active means well fitted inhibition curve with a large enough effect; inconclusive means small, poorly fitted or top-dose-only effect, or another doubt; inactive means no such curve, though single readings can be large or run the other way;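 further: the enzyme is Sfp with the accession as filed and its product quenches rhodamine fluorescence; potency means the concentration at half of the fitted maximal effect; 0% = enzyme reaction without inhibitor and -100% = no enzyme wells; top concentration of the series not given in the record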
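Reaction rates are the 30-min fluorescence difference (ex 525, em 598 nm) in wells containing 15 nM Sfp, 5 uM rhodamine-CoA and 12.5 uM BHQ-2-YbbR at pH 7.6 with 10 mM MgCl2.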
* hit, by the source's call; ? = inconclusive; · = not tested or not shown; & = joins results of further samples; [ ] = another dose, or the depositor's remark. Some of the compounds tested (hit frequency here may not be typical).

(1) COc1cc2[nH]c(C(=O)N3CCC4(CC3)OCCO4)cc2c(OC)c1OC
(2) CC(=NCc1cccnc1)c1c(O)n(-c2ccccc2)c(=O)[nH]c1=O
(3) Nc1c(C(=O)NCc2ccco2)c2nc3ccccc3nc2n1Cc1ccccc1
(4) Cc1ccc(CN2CCCN(Cc3ccccc3C)S2(=O)=O)cc1
(5) CN(C)CCCN=Cc1c(O)n(Cc2ccco2)c(=O)[nH]c1=O
(6) CCn1cc(C(=O)N2CCOCC2)c2ccccc21
(7) CCC(=NCC1CCCO1)c1c(O)[nH]c(=O)[nH]c1=O (stereo unspecified)
(8) O=C(CN1CCCCC1)c1ccccc1F

Assay by compound | 1 | 2 | 3 | 4 | 5 | 6 | 7 | 8
CtBP-E1A blk | -21 | 3 | · | 68 | -8 | -3 | 12 | -18
gsp antagonist | 6% | -2% | -2% | 3% | 17% | 2% | 3% | 5%
Sfp PPTase inh | 3% | 13% | 45µM* | -6% | 6% | 22% | 17% | 16%
gsp ag | 2% | 21% | -4% | ? | -21%[15.4 µM] | 26% | ? | -24%
ClpP mod | -16% | 0.1% | 3.8% | · | · | -3.5% | -0.3% | -4.3%
Menin MLL FP FL | · | 3.8 | 7.3 | 1.6 | ? | -4.0 | -0.6 | -4.2
TRPV1 PAM | -5 | 8 | 1 | 8 | 2 | 2 | -18 | -4

Values by screen from above.
ClpP mod, entries 1–8, in order: -16%, 0.1%, 3.8%, ·, ·, -3.5%, -0.3%, -4.3%
Menin MLL FP FL, entries 1–8, in order: ·, 3.8, 7.3, 1.6, ?, -4.0, -0.6, -4.2

(next part)
(9) Cc1cc2ccccc2c(=O)n1CC(=O)NCC(=O)N1CCC2(CC1)OCCO2
(10) COC(=O)C1=C(c2ccc(OC(F)(F)F)cc2)C[C@@H]2CC[C@H]1N2C(=O)NCc1cccc2ccccc12
(11) O=C(C(Cc1ccccc1)NS(=O)(=O)c1ccc(F)cc1)N1CCC2(CC1)OCCO2 (stereo unspecified)
(12) Cc1cc(=O)oc2cc(OCC(=O)N3C[C@H]4C[C@@H](C3)c3cccc(=O)n3C4)c(Cl)cc12
(13) COCCNC(=O)c1c(N)n(CCC(C)C)c2nc3ccccc3nc12
(14) CCOc1ccc(NC(=O)c2ccc(NC(=O)COC(=O)Cc3ccccc3)cc2)cc1
(15) C=C[C@@H]1C2=CCOC(=O)C2=CO[C@H]1O[C@@H]1O[C@H](CO)[C@@H](O)[C@H](O)[C@H]1O
(16) O=C(N/N=C1/CN2CCC1CC2)c1cc2ccccc2cc1O

Assay by compound | 9 | 10 | 11 | 12 | 13 | 14 | 15 | 16
CtBP-E1A blk | -7 | 0 | 11 | 0 | 42 | 0 | 2 | 3
gsp antagonist | 21% | -12% | -3% | 0% | 9% | 1% | 10% | -20%
Sfp PPTase inh | -1% | · | -13% | 21% | -3% | 17% | · | -11%
gsp ag | 10%[15.4 µM] | · | 13% | · | 27% | 2%[15.4 µM] | · | -74%[inhibitor]
ClpP mod | · | 1.4% | -2.2% | 4.2% | 16µM* | · | 1.0% | 6.2%
Menin MLL FP FL | 0.9 | · | -7.1 | 6.6 | 13 | 2.5 | · | 13
TRPV1 PAM | 5 | -15 | 14 | -5 | 0 | 6 | -1 | 19

Whole records, looked up by structure. Order of values: CtBP-E1A blk	gsp antagonist	Sfp PPTase inh	gsp ag	ClpP mod	Menin MLL FP FL	TRPV1 PAM
Cc1cc(=O)oc2cc(OCC(=O)N3C[C@H]4C[C@@H](C3)c3cccc(=O)n3C4)c(Cl)cc12 is listed as 0	0%	21%	·	4.2%	6.6	-5
COC(=O)C1=C(c2ccc(OC(F)(F)F)cc2)C[C@@H]2CC[C@H]1N2C(=O)NCc1cccc2ccccc12 is listed as 0	-12%	·	·	1.4%	·	-15
O=C(N/N=C1/CN2CCC1CC2)c1cc2ccccc2cc1O is listed as 3	-20%	-11%	-74%[inhibitor]	6.2%	13	19

(more compounds)
(17) O=C(Cc1ccccc1)Oc1ccc(N2C(=O)C3CCCCC3C2=O)cc1 (stereo unspecified)
(18) CC(C(=O)Nc1ccc(Br)cc1C(=O)c1ccccc1)N1CCCCC1 (stereo unspecified)
(19) COC(=O)C1=C(c2ccc(F)cc2OCc2ccccc2)C[C@@H]2CC[C@H]1N2C(=O)N1CCC(O)(c2ccc(Cl)cc2)CC1
(20) Cc1ccc(/C=C2/C(=O)NC(=O)N(CC3CCCO3)C2=O)s1 (stereo unspecified)
(21) Oc1ccccc1-[n+]1c(-c2ccccc2)cc(-c2ccccc2)c(O)c1-c1ccccc1
(22) CN1CC[C@@]2(C)c3cc(O)ccc3N(C)[C@@H]12
(23) O=P(O)(c1ccc(Cl)cc1)c1ccc(Cl)cc1
(24) O=C1NS(=O)c2cc([N+](=O)[O-])cc([N+](=O)[O-])c21 (stereo unspecified)

Assay by compound | 17 | 18 | 19 | 20 | 21 | 22 | 23 | 24
CtBP-E1A blk | 14 | 18 | -5 | 11 | · | ? | 9 | -4
gsp antagonist | 10% | -38% | -4% | -8% | -4% | -14%&-14% | 69%[activator] | 2%
Sfp PPTase inh | 15% | -2% | · | ? | · | -5% | 23% | 18µM*
gsp ag | -13% | -23% | -12% | -11% | 11% | · | -34%[inhibitor] | ?
ClpP mod | 1.1% | 1.5% | -8.2% | -0.8% | -5.2% | ? | -1.6% | 0.3%
Menin MLL FP FL | 7.7 | 3.2 | · | 9.1 | · | ? | 2.5 | -0.2
TRPV1 PAM | ? | -4 | · | -4 | 8 | · | -11 | 2

(25) Cn1c(O)c(/C=N/N2CCCCC2)c(=O)[nH]c1=O
(26) CCOC(=O)c1c(/N=C/C2C(=O)NC(=O)NC2=O)sc2c1CCC2
(27) CNP1(NC)=Nc2nn(-c3ccccc3)c(N)c2C(c2ccccc2)=N1
(28) Cc1cccc(-n2c(-c3ccc([N+](=O)[O-])cc3)nc3ccccc3c2=O)c1
(29) Cc1cc(C)c(S(=O)(=O)NCC2CCC(C(=O)N3CCC4(CC3)OCCO4)CC2)c(C)c1 (stereo unspecified)
(30) COC(=O)c1cc(COc2cc(C)cc3oc(=O)c4c(c23)CCC4)c(C)o1
(31) CCOC(=O)C1SC2(C(F)(F)C(F)F)CC1(O)c1c(c(OC)c3occc3c1OC)O2 (stereo unspecified)
(32) O=c1[nH]c(=O)n(CCC2=CCCCC2)c(O)c1/C=N/Nc1cccc2ccccc12
(33) Cc1ccccc1N1CCN(C2CCCN(C(=O)Cc3c(C)noc3C)C2)CC1 (stereo unspecified)
(34) COC(=O)C1=C(c2ccc(F)cc2OCc2ccccc2)C[C@@H]2CC[C@H]1N2C(=O)NCCCOC(C)C

Assay by compound | 25 | 26 | 27 | 28 | 29 | 30 | 31 | 32 | 33 | 34
CtBP-E1A blk | -4 | -1 | 10 | -3 | 2 | · | 7 | 1 | 0 | -24
gsp antagonist | -9% | 6% | 1% | -21% | 1% | · | -30% | -25% | 2% | -10%
Sfp PPTase inh | 27% | 35µM* | 2% | -4% | 11% | -8% | 22% | -26% | 7% | ·
gsp ag | -3% | ? | 4% | 2% | -39%[inhibitor] | · | 6% | 35% | -12% | ·
ClpP mod | -1.6% | · | -0.3% | · | -15% | · | -0.2% | -26% | -1.1% | -4.3%
Menin MLL FP FL | 2.9 | ? | -1.7 | 1.8 | 3.8 | -2.6 | 1.9 | ? | · | ·
TRPV1 PAM | 2 | 7 | -1 | -7 | -5 | -13 | -7 | 8 | -2 | -9

4 of these compounds in a different format:
no. | compound | CtBP-E1A blk | gsp antagonist | Sfp PPTase inh | gsp ag | ClpP mod | Menin MLL FP FL | TRPV1 PAM
32 | O=c1[nH]c(=O)n(CCC2=CCCCC2)c(O)c1/C=N/Nc1cccc2ccccc12 | 1 | -25% | -26% | 35% | -26% | ? | 8
26 | CCOC(=O)c1c(/N=C/C2C(=O)NC(=O)NC2=O)sc2c1CCC2 | -1 | 6% | 35µM* | ? | · | ? | 7
27 | CNP1(NC)=Nc2nn(-c3ccccc3)c(N)c2C(c2ccccc2)=N1 | 10 | 1% | 2% | 4% | -0.3% | -1.7 | -1
34 | COC(=O)C1=C(c2ccc(F)cc2OCc2ccccc2)C[C@@H]2CC[C@H]1N2C(=O)NCCCOC(C)C | -24 | -10% | · | · | -4.3% | · | -9

High-throughput results (PubChem BioAssay)
